Compound activity as filed in PubChem BioAssay.
NPYLR7 agonist = activates Aedes aegypti NPYLR7 receptor | HEK293T NPYLR7/Galpha15, GCaMP6s calcium fluorescence | activation, % at 10 µM | actives 0.15% (n = 270,000) | AID 1259423; in the data active means activation above about 40%;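 further: 0% = vehicle and 100% = reference agonist at the receptor; some compounds past the cut are filed as inactive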
NPYLR7 agonist max-min = recorded beside NPYLR7 agonist, whose call it bears; activation, %; measured here: Max-Min RFU normalised activation; some inactives read as strong as hits;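 span of the calcium signal over five minutes; 0% = vehicle and 100% = native peptide agonist; compound fluorescence can raise it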
Numbers without * were called inactive; & = joins results of further samples. Only part of the results is shown, so the mix of outcomes need not match the whole.

Sample of the layout, twelve compounds:
Screening CC1C(=O)N(c2cccc(F)c2)CCN1C(=O)C1CC1 (stereo unspecified) returned NPYLR7 agonist 44* and NPYLR7 agonist max-min 49*.
CCc1nc2n(n1)C(=O)C(C(c1cccs1)N1CCN(c3ccc(F)cc3)CC1)S2 (stereo unspecified) was read as NPYLR7 agonist -7 and NPYLR7 agonist max-min -8.
Screening Cc1ncc(-c2c(-c3ccccc3)ncn2CCN2CCCOC2=O)[nH]1 returned NPYLR7 agonist -6 and NPYLR7 agonist max-min -7.
Screening Cc1cccc(CO[C@]2(C(=O)NCCCn3ccnc3)CC(OCc3ccc(C#N)cc3)[C@@H]3OC(C)(C)O[C@@H]3C2)c1 (stereo partly specified) returned NPYLR7 agonist 17 and NPYLR7 agonist max-min 4.
Screening O=C(Nc1nc(CN2CCCCC2)cs1)c1cnn(-c2ccc(Cl)cc2)c1 returned NPYLR7 agonist 12 and NPYLR7 agonist max-min 14.
For CC(C)c1ccc(/C=C2N=C(/C=C/c3ccccc3)OC/2=O)cc1 the results were NPYLR7 agonist -6 and NPYLR7 agonist max-min -1.
C=CCNC(=O)[C@@H]1CCCC[C@@H]1C(=O)N1CCc2c([nH]c3ccccc23)C1 was read as NPYLR7 agonist -1 and NPYLR7 agonist max-min -5.
Screening NC(=O)c1ccc(CSc2nncn2-c2cccc(Cl)c2)cc1 returned NPYLR7 agonist 1 and NPYLR7 agonist max-min 3.
For COc1ccc(N2CCn3c(SCc4ccccc4)nnc32)cc1 the results were NPYLR7 agonist 5 and NPYLR7 agonist max-min 5.
`CS(=O)(=O)NCCCn1nc(-c2ccco2)ccc1=O` gave NPYLR7 agonist 0 and NPYLR7 agonist max-min 0.
Screening CCOC(=O)C1(CCc2ccccc2)CCN(C(=O)c2cc(OC)ccc2OC)CC1 returned NPYLR7 agonist 14&7 and NPYLR7 agonist max-min 13&6.
For COC(=O)c1cc(OC)c(OC)cc1NC(=O)c1oc2ccccc2c1C the results were NPYLR7 agonist 23 and NPYLR7 agonist max-min 12.

The listing, previewed entries included:
Screening CC1C(=O)N(c2cccc(F)c2)CCN1C(=O)C1CC1 (stereo unspecified) returned NPYLR7 agonist 44* and NPYLR7 agonist max-min 49*.
CCc1nc2n(n1)C(=O)C(C(c1cccs1)N1CCN(c3ccc(F)cc3)CC1)S2 (stereo unspecified) was read as NPYLR7 agonist -7 and NPYLR7 agonist max-min -8.
Screening Cc1ncc(-c2c(-c3ccccc3)ncn2CCN2CCCOC2=O)[nH]1 returned NPYLR7 agonist -6 and NPYLR7 agonist max-min -7.
Screening Cc1cccc(CO[C@]2(C(=O)NCCCn3ccnc3)CC(OCc3ccc(C#N)cc3)[C@@H]3OC(C)(C)O[C@@H]3C2)c1 (stereo partly specified) returned NPYLR7 agonist 17 and NPYLR7 agonist max-min 4.
Screening O=C(Nc1nc(CN2CCCCC2)cs1)c1cnn(-c2ccc(Cl)cc2)c1 returned NPYLR7 agonist 12 and NPYLR7 agonist max-min 14.
For CC(C)c1ccc(/C=C2N=C(/C=C/c3ccccc3)OC/2=O)cc1 the results were NPYLR7 agonist -6 and NPYLR7 agonist max-min -1.
C=CCNC(=O)[C@@H]1CCCC[C@@H]1C(=O)N1CCc2c([nH]c3ccccc23)C1 was read as NPYLR7 agonist -1 and NPYLR7 agonist max-min -5.
Screening NC(=O)c1ccc(CSc2nncn2-c2cccc(Cl)c2)cc1 returned NPYLR7 agonist 1 and NPYLR7 agonist max-min 3.
For COc1ccc(N2CCn3c(SCc4ccccc4)nnc32)cc1 the results were NPYLR7 agonist 5 and NPYLR7 agonist max-min 5.
`CS(=O)(=O)NCCCn1nc(-c2ccco2)ccc1=O` gave NPYLR7 agonist 0 and NPYLR7 agonist max-min 0.
Screening CCOC(=O)C1(CCc2ccccc2)CCN(C(=O)c2cc(OC)ccc2OC)CC1 returned NPYLR7 agonist 14&7 and NPYLR7 agonist max-min 13&6.
For COC(=O)c1cc(OC)c(OC)cc1NC(=O)c1oc2ccccc2c1C the results were NPYLR7 agonist 23 and NPYLR7 agonist max-min 12.
Screening O=C(Nc1nnc(-c2ccncc2)o1)c1ccccc1[N+](=O)[O-] returned NPYLR7 agonist 5 and NPYLR7 agonist max-min 0.
Screening CCc1ccc(S(=O)(=O)Nc2ccc(-c3ccc(OC)nn3)cc2)s1 returned NPYLR7 agonist 0 and NPYLR7 agonist max-min 5.
`CN1C[C@H]2CNC[C@@]2(C(=O)N2CCC(N3C(=O)Cc4ccccc43)CC2)C1` gave NPYLR7 agonist 14 and NPYLR7 agonist max-min 7.
Screening O=C(c1ccc(Cl)cc1OC1CCN(C2Cc3ccccc3C2)CC1)N1CCCCC1 returned NPYLR7 agonist 3 and NPYLR7 agonist max-min 0.
CC(C)(CN1CCN(c2ncc(Cl)cn2)CC1)N1CCCCC1 was read as NPYLR7 agonist 8 and NPYLR7 agonist max-min 9.
Cc1sc(NC(=O)c2cccc(OC(F)F)c2)c(C(N)=O)c1C was read as NPYLR7 agonist 12 and NPYLR7 agonist max-min 7.
`CCc1nnc2sc(/C=C/c3ccccc3OC)nn12` gave NPYLR7 agonist 0 and NPYLR7 agonist max-min -3.
Screening Cc1cccn2c(CN3C[C@@H]4CCC[C@H]3C4)c(C(=O)N(C)CCc3ccccc3)nc12 returned NPYLR7 agonist 4 and NPYLR7 agonist max-min 5.
Cc1ccc(S(=O)(=O)N(Cc2nnc(-c3ccccc3)o2)C(C)C)cc1C was read as NPYLR7 agonist -8 and NPYLR7 agonist max-min -6.
CC(C)(C)NC(=O)c1cnn2c1NC(c1ccc3c(c1)OCO3)CC2C(F)(F)F (stereo unspecified) was read as NPYLR7 agonist 6 and NPYLR7 agonist max-min -2.
Screening Cn1nc(-c2cccc(NC(=O)c3ccc4ccccc4c3)c2)ccc1=O returned NPYLR7 agonist -1 and NPYLR7 agonist max-min -3.
`C=CCn1c(=O)c2c(nc3n2CCCN3c2ccc(OC)cc2)n(C)c1=O` gave NPYLR7 agonist 9 and NPYLR7 agonist max-min 3.
COCc1nc(C(=O)NCC2(c3ccc(Cl)cc3)CCCC2)cs1 was read as NPYLR7 agonist 1 and NPYLR7 agonist max-min 33.
`COCCCNC(=O)C(NC(=O)c1ccc(OC)cc1)C1CCN(C(=O)c2ccccc2C)CC1` (stereo unspecified) gave NPYLR7 agonist -1 and NPYLR7 agonist max-min -4.
For O=C(C1CCCc2ccccc21)N1CCC(Nc2ccccc2)CC1 (stereo unspecified) the results were NPYLR7 agonist 2 and NPYLR7 agonist max-min 3.
`O=C1CC2(CCCCC2)C(=O)N1CN1CCN(c2cccc(Cl)c2)CC1` gave NPYLR7 agonist 19 and NPYLR7 agonist max-min 16.
For CCOCC(=O)Nc1c(C)nc2c(C)cccn2c1=O the results were NPYLR7 agonist 3 and NPYLR7 agonist max-min 1.
For CC1CCCCN1C1CN(Cc2ccc(C#CCO)s2)C1 (stereo unspecified) the results were NPYLR7 agonist 5 and NPYLR7 agonist max-min 4.
For CCN1CCN(C(c2ccc(SC)cc2)c2c(O)cc(C)n(CCOC)c2=O)CC1 (stereo unspecified) the results were NPYLR7 agonist -2 and NPYLR7 agonist max-min -5.
Screening CCCc1c(C)nn(-c2ccc(C(=O)Nc3cccc(OC)c3)cc2)c1C returned NPYLR7 agonist -2 and NPYLR7 agonist max-min -5.
`C=CCN(Cc1nc2sc(C)c(C)c2c(=O)[nH]1)CC(O)COC(=O)CCC` (stereo unspecified) gave NPYLR7 agonist 10 and NPYLR7 agonist max-min 8.
CCOC(=O)c1nn(-c2ccccc2C)c(=O)cc1N1CCc2ccccc2C1 was read as NPYLR7 agonist 4 and NPYLR7 agonist max-min 2.
`CC1(C(=O)NS(=O)(=O)c2cccc(Cl)c2)CCN1C(=O)CC1CCCCC1` (stereo unspecified) gave NPYLR7 agonist 2 and NPYLR7 agonist max-min 0.
For COC(=O)c1c(OCC2CCCCO2)cc(=O)n2c1CCN(C(=O)COc1ccc(C)cc1)CC2 (stereo unspecified) the results were NPYLR7 agonist -1 and NPYLR7 agonist max-min -3.
`CCn1c(CC2CCN(C(=O)Nc3cc(C)ccc3OC)CC2)nn(C)c1=O` gave NPYLR7 agonist 14 and NPYLR7 agonist max-min 10.
CCCN(CC1CCCO1)C(=O)c1c(F)cc(OC)cc1F (stereo unspecified) was read as NPYLR7 agonist 6 and NPYLR7 agonist max-min -3.
For COc1ccccc1/C=C/C=C1/N=C(c2cccc([N+](=O)[O-])c2)OC1=O the results were NPYLR7 agonist 0 and NPYLR7 agonist max-min 2.
`CCCCc1ccc(NC(=O)CSc2nc(=O)n(Cc3ccncc3)c3c2CCC3)cc1` gave NPYLR7 agonist -6 and NPYLR7 agonist max-min -7.
Screening COCc1noc(-c2cnc(Cc3ccccc3)s2)n1 returned NPYLR7 agonist 5 and NPYLR7 agonist max-min 2.
`COc1ccc(C(C)C)cc1-c1cncc(NC(C)=O)n1` gave NPYLR7 agonist 4 and NPYLR7 agonist max-min 1.
For O=C(NCc1ccc(F)cc1)c1cc2cc(Cl)ccc2oc1=O the results were NPYLR7 agonist -6 and NPYLR7 agonist max-min -12.
Screening CC(C)C(=O)Nc1ccc(N(C)C)c(CN(CC2CC2)C(=O)c2ccc(F)cc2)c1 returned NPYLR7 agonist 2 and NPYLR7 agonist max-min 12.
CCCCCCC(=O)Nc1c(-c2cccc(Cl)c2)nc2ccc(C)cn12 was read as NPYLR7 agonist -3 and NPYLR7 agonist max-min 5.
Screening COC(=O)CNC(=O)CCc1n[nH]c(=S)[nH]c1=O returned NPYLR7 agonist 5 and NPYLR7 agonist max-min 11.
For COc1ccc2nc(-c3ccc(C)c(NS(=O)(=O)c4ccc(C)s4)c3)cn2n1 the results were NPYLR7 agonist -12 and NPYLR7 agonist max-min -19.
`COc1ccc(C(C2Sc3ncnn3C2=O)N2CCN(CCO)CC2)cc1OC` (stereo unspecified) gave NPYLR7 agonist 2 and NPYLR7 agonist max-min 1.
COCC(=O)N[C@H]1C[C@@H]2C(=O)N[C@H]3CCN(C(=O)C4CCN(C(C)=O)CC4)[C@@H]3C(=O)N2C1 was read as NPYLR7 agonist -7 and NPYLR7 agonist max-min -14.
`O=C(O)C1=CCNCC1` gave NPYLR7 agonist -8&-7 and NPYLR7 agonist max-min -15&-1.
`CCCc1nc(C)cc(N2CCc3nc[nH]c3C2)n1` gave NPYLR7 agonist -2 and NPYLR7 agonist max-min -6.
O=C(c1ccc(-n2cnnc2)cc1)N1CCC(c2ccccc2Cl)C1 (stereo unspecified) was read as NPYLR7 agonist 3 and NPYLR7 agonist max-min 0.
`O=C(O)CCSc1n[nH]c(=S)s1` gave NPYLR7 agonist 3 and NPYLR7 agonist max-min 9.
Screening O=C(c1ccccc1)c1cccc(NC(=O)c2cc(C3CC3)on2)c1 returned NPYLR7 agonist 13 and NPYLR7 agonist max-min 2.
COc1cccc(C(=O)N2C(C(=O)NCc3ccccn3)COC23CCN(C(=O)C2CC2)CC3)c1 (stereo unspecified) was read as NPYLR7 agonist -1 and NPYLR7 agonist max-min 11.
Screening COCCCN(Cc1csc(COc2cccc(C)c2C)n1)C(C)=O returned NPYLR7 agonist 4 and NPYLR7 agonist max-min -8.
For CCCCC1CCC(C(=O)Oc2cc(C)[nH]c(=O)c2[N+](=O)[O-])CC1 (stereo unspecified) the results were NPYLR7 agonist -1 and NPYLR7 agonist max-min -2.
For Cc1ccc(S(=O)(=O)N2CCN(CC(=O)NCC(C)C)CC2)cc1C the results were NPYLR7 agonist 1 and NPYLR7 agonist max-min 13.
COc1ccc(Br)cc1-c1nnc2n(C)c3c(=O)[nH]c(=O)n(C)c3n12 was read as NPYLR7 agonist 6&7 and NPYLR7 agonist max-min 2&4.
For CCCS(=O)(=O)Nc1ccc(N(C)C)c(CN(C(C)C(C)C)S(=O)(=O)c2cccc(Cl)c2)c1 (stereo unspecified) the results were NPYLR7 agonist -1 and NPYLR7 agonist max-min 5.
Screening Cc1occc1C(=O)NCC(=O)NCC(C)(C)c1ccc2c(c1)OCCO2 returned NPYLR7 agonist -12 and NPYLR7 agonist max-min -14.
CC(C)(C)C(NCn1ccc(C(F)(F)F)n1)c1cccs1 (stereo unspecified) was read as NPYLR7 agonist 0 and NPYLR7 agonist max-min -2.
Screening CN(Cc1ccc(C(F)(F)F)cc1)Cc1nc(-c2ccccn2)no1 returned NPYLR7 agonist 1 and NPYLR7 agonist max-min 0.
Cc1ccc(-c2cc(C(=O)N3CCN(c4cccc(C(F)(F)F)c4)CC3)n(-c3cccc(Cl)c3)n2)cc1C was read as NPYLR7 agonist -1 and NPYLR7 agonist max-min 4.
O=C(NCC1COCCO1)c1cc(COc2ccccc2F)[nH]n1 (stereo unspecified) was read as NPYLR7 agonist 2 and NPYLR7 agonist max-min 2.
Screening Cc1cc(C)c(-c2c(O)c3cccnc3n(C)c2=O)c(C)c1 returned NPYLR7 agonist 4 and NPYLR7 agonist max-min 8.
For C[C@@H](C(=O)N1CCc2c(ncnc2N(C)C)C1)n1cnnn1 the results were NPYLR7 agonist 7 and NPYLR7 agonist max-min -2.
For CC(=O)c1cccc(NC(=O)c2ccc(-c3ccccc3[N+](=O)[O-])o2)c1 the results were NPYLR7 agonist 1 and NPYLR7 agonist max-min -1.
C=CCOC1CCCN(C(=O)c2ccc3c(c2)OCO3)C1 (stereo unspecified) was read as NPYLR7 agonist -4 and NPYLR7 agonist max-min -5.
For COc1ccc(C=NN=Cc2ccc(OC)cc2)cc1 the results were NPYLR7 agonist -3 and NPYLR7 agonist max-min -6.
Screening OCCc1nc2ccccc2s1 returned NPYLR7 agonist 5 and NPYLR7 agonist max-min 2.
`CCc1ccc(-n2nnc(C(=O)OCc3nc(-c4cc(OC)c(OC)c(OC)c4)oc3C)c2C)cc1` gave NPYLR7 agonist -2 and NPYLR7 agonist max-min -5.
`CCOC(=O)C1CCN(C(=O)c2cccc(CSc3nc(-c4ccccc4)cc(N4CCN(C)CC4)n3)c2)CC1` gave NPYLR7 agonist 15 and NPYLR7 agonist max-min 16.
For CC(=O)Nc1ccc2c(c1)N(C(=O)c1cccs1)CC2 the results were NPYLR7 agonist 0 and NPYLR7 agonist max-min 4.
`CC(NC(=O)N1Cc2ccccc2C1)C(=O)N1CCCCC1C` (stereo unspecified) gave NPYLR7 agonist 5 and NPYLR7 agonist max-min 2.
